# Screening data: PubChem BioAssay, several laboratories
# Hsc70 ATP site = Hsc70 inhibitors, probe displacement, primary screen, biochemical, fluorescence polarization (AID 568); Hsc70 fluorescence polarization, probe displacement; higher % means a stronger effect; strong numbers were not always called active; displacement, % at 20 µM, or IC50 in µM where a hit was titrated; 83,000 tested, under 10 active;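 active means displacement above 50% without optical interference and an IC50 on retest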;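 further: ATPase domain with a fluorescein-tagged ATP probe; 0% = vehicle and 100% = excess ADP; read after one hour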
# WNV protease inh = inhibitors of West Nile virus NS2B-NS3 protease | P06935 | WNV NS2B-NS3 protease, fluorogenic substrate Ex360/Em465; stronger effect = lower value | z-score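 (tested at a level between 10 and 100 µM)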 | hit rate 0.18% among 65,000;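 active means z-score at -3 or under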;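 further: score is relative to mean and spread of the compound wells of a plate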
# Target sequence (P06935 1371-1501 limits assumed): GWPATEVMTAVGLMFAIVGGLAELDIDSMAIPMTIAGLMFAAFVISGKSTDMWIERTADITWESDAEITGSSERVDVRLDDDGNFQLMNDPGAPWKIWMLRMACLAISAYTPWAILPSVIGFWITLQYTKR
# Target sequence (P06935 1502-1679 limits assumed): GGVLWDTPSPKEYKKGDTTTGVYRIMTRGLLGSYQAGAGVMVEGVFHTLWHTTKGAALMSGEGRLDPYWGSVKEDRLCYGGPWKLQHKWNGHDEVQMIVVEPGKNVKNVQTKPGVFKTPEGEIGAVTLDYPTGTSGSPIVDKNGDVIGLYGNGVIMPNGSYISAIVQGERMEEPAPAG
# MT1-MMP reporter = inhibitors of MT1-MMP promoter transcription, cell-based, luciferase reporter, luminescence (AID 618); MT1-MMP promoter luciferase reporter cells, luminescence; calls from a first round at 10 µM; hits with a dose series show EC50 in µM; hit rate 0.62% among 87,000;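 active means over half of the reporter light lost at 10 µM or EC50 under 50 µM; inactive means the rest and hits that failed the dose series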;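 further: actives suppress MT1-MMP promoter-driven transcription so potencies describe inhibitors; HT1080 fibrosarcoma cells; overnight exposure; toxic or luciferase-blocking compounds were not removed from the actives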
# Numbers without * were called inactive; i = inactive; x = not tested or not shown.
Structure	Hsc70 ATP site	WNV protease inh	MT1-MMP reporter
O=C(OC1CCOC1=O)c1cc(-c2ccc(Cl)cc2)nc2ccccc12 (stereo unspecified)	3.1%	x	i
CCc1nccn1S(=O)(=O)c1ccc2ccccc2c1	-4.9%	0.04	i
O=C(CCn1cccc1)Nc1cc(F)ccc1F	-7.4%	-1.1	i
CCCCSc1nnc2[nH]c(=O)cc(N)n12	-2.2%	x	i
CC(C)OC(=O)C(C#N)c1nc2ccccc2nc1N1CCN(Cc2ccccc2)CC1 (stereo unspecified)	5.0%	-0.56	i
Cc1cc(Cl)ccc1N1C(=O)CC(SCCC(=O)O)C1=O (stereo unspecified)	2.8%	1.7	i
CCOC(=O)c1ccccc1NC(=O)N[C@@H](C)C(=O)OC	-2.0%	x	i
COc1ccc(N2CCN(CC(=O)N3CCC(C)CC3)CC2)cc1	2.8%	0.2	i
Cc1cc(NC(=O)c2ccco2)ccc1-n1cnnn1	-4.0%	x	i
Cc1cc(C(=O)OCc2nnc(-c3ccccc3)o2)c(C)n1-c1ccccc1	-7.2%	-1.1	i
O=C(Cc1nc(-c2ccc(Br)s2)cs1)NCCN1CCOCC1	1.9%	0.5	i
O=c1c2ccccc2nc2c3ccccc3c(NCCN3CCOCC3)nn12	2.6%	x	i
CCOC(=O)c1ccc(COC(=O)c2cc3ccccc3oc2=O)o1	2.9%	-0.54	i
CC1CCC2(CC1)N=C(N)Nc1nc3ccccc3n12 (stereo unspecified)	-4.1%	x	i
Cc1nn2c(-c3ccco3)nnc2c2ccccc12	-1.2%	-1	i
Cn1c(CSc2nc3ccccc3s2)n[nH]c1=S	-0.9%	1.9	i

# Of the compounds above, two have an NH in an aromatic ring:
Structure	Hsc70 ATP site	WNV protease inh	MT1-MMP reporter
CCCCSc1nnc2[nH]c(=O)cc(N)n12	-2.2%	x	i
Cn1c(CSc2nc3ccccc3s2)n[nH]c1=S	-0.9%	1.9	i

# Continued:
Structure	Hsc70 ATP site	WNV protease inh	MT1-MMP reporter
Cc1cccc(Nc2n[nH]c(=S)s2)c1C	5.6%	-0.48	i
Cc1nc2nc[nH]n2c(=O)c1NC(=O)c1cccc(OCC(C)C)c1	-1.2%	0.19	i
CCn1c(SCC(=O)Nc2ccccc2C)nnc1-c1ccccc1O	-3.8%	-0.46	i
Cc1cc(NCCO)c2ccccc2n1	4.6%	x	i
O=C(CSc1nnc(Cn2nnc3ccccc32)o1)Nc1cccc(Cl)c1	2.3%	x	i
COc1ccc(OC)c(NC(=O)CSc2ccc3ccccc3c2)c1	-4.1%	x	i
COc1ccc(-c2c(C)oc3c(CN4CCN(C)CC4)c(O)ccc3c2=O)cc1	2.1%	3	i
CC(=O)NC(CC(C)C)C(=O)NC(=O)NCc1ccccc1 (stereo unspecified)	0.4%	-0.5	i
CC1CCN(C(=O)C2CC(c3ccc(F)cc3)=NO2)CC1 (stereo unspecified)	6.0%	-0.16	i
CCCN1CCN(CCCNC(=O)C2CCCN(c3nnc(-n4cccc4)s3)C2)CC1 (stereo unspecified)	5.9%	-1.3	i
Cn1nnc(NC(=O)CSc2nnnn2-c2ccc(F)cc2)n1	8.9%	-0.98	i
COc1cc(NC(=O)CSc2nnc(C)s2)cc(OC)c1	-3.9%	0.08	i
Nc1[nH]nc2nc(NCc3ccccc3)c3c(c12)CCN(Cc1ccccc1)C3	-2.6%	-0.11	i
CCOC(=O)Cc1csc(NC(=O)c2ccco2)n1	-2.3%	-0.87	i
C=CCn1cc(C(=O)NCCCOCC)c(=O)c2cc(S(=O)(=O)N(CC)CC)ccc21	1.7%	1.4	i
Cc1c(NC(=O)C2CCCN(S(=O)(=O)c3cnc[nH]3)C2)c(=O)n(-c2ccccc2)n1C (stereo unspecified)	1.0%	-0.6	i
COCCCN(C(C)=O)c1nc(-c2ccc(OC)cc2)cs1	-2.6%	0.13	i
CCc1cccc(CC)c1NC(=O)CSc1nnc(C(C)C)n1CC	-9.9%	0.96	i
Clc1ccc(-c2nnc3sc(-c4ccc(Br)o4)nn23)cc1	-7.7%	0.71	i
CCNc1nnc(-c2ccc(C)cc2)o1	-3.2%	1.2	i
Cn1c(SCc2cccnc2)nc2cccnc21	-3.1%	-0.67	i
CC1CCCN(C(=O)C2CCN(CCCc3ccccc3)CC2)C1 (stereo unspecified)	-1.9%	1.2	i
COc1ccc2cc3cc(C(=O)NCCN4CCN(Cc5ccccc5)CC4)oc3nc2c1	2.1%	2.4	i
CC(C)(C)c1cc(CN2CCC(O)CC2)cc(C(C)(C)C)c1O	0.7%	x	i

# Three entries from above, arranged by number of heavy atoms, ascending:
Structure	Hsc70 ATP site	WNV protease inh	MT1-MMP reporter
CCNc1nnc(-c2ccc(C)cc2)o1	-3.2%	1.2	i
CC(C)(C)c1cc(CN2CCC(O)CC2)cc(C(C)(C)C)c1O	0.7%	x	i
CCc1cccc(CC)c1NC(=O)CSc1nnc(C(C)C)n1CC	-9.9%	0.96	i

# (list continues)
Structure	Hsc70 ATP site	WNV protease inh	MT1-MMP reporter
CCc1ncc(C(O)c2cccc3ccccc23)n1C (stereo unspecified)	-6.7%	0.0092	i
O=C(Cn1c(-c2cncs2)nc2ccccc21)NCCc1ccccc1	5.4%	0.83	i
CCOC(=O)N1CCN(S(=O)(=O)c2ccc(C)cc2)C1c1ccccc1 (stereo unspecified)	1.8%	2	i
CCOC(=O)NC(Nc1ncccn1)(C(F)(F)F)C(F)(F)F	9.3%	-0.77	i
COc1ccc2cc(C3(C)NC(=O)N(CC(=O)NCc4ccco4)C3=O)ccc2c1 (stereo unspecified)	6.0%	0.09	i
CCN(CC(=O)NC1CCS(=O)(=O)C1)c1nc(-c2ccccc2)nc2ccccc12 (stereo unspecified)	-0.9%	-0.79	i
O=C(c1ccc(N2CN(C(=O)c3ccco3)c3nc4ccccc4nc32)cc1)N1CCOCC1	4.8%	-0.01	i
Cc1cc(C)n(-c2ccc(C(=O)N3CCc4ccccc43)cc2)n1	10%	-0.77	i

# (listing goes on)
# Every second line gives: Hsc70 ATP site, WNV protease inh, MT1-MMP reporter
COc1ccc(-c2nnc(SCC(=O)NCc3ccco3)o2)cc1
    2.2%, -1, i
CCCCN1C(=O)/C(=C2\SC(N3CCCCC3)=NC2=O)c2ccccc21
    -0.6%, -0.86, i
COC(=O)CN(c1ccccc1)S(=O)(=O)c1ccc(F)cc1
    9.7%, -0.8, i
O=c1c2nnn(Cc3ccccc3)c2ncn1-c1ccccc1
    -0.6%, -0.89, i
CCOc1cccc(OCCCCN2CCCCC2)c1
    6.1%, 0.95, i
COCCOC(=O)c1c(C)oc2ccc(OCC=C(C)C)cc12
    5.1%, 0.86, i
C=C(C)CSc1nnc(-c2ccc(OC)c(OC)c2)n1N
    -8.7%, -0.93, i
O=C(O)CNC(=O)c1ccccc1F
    1.0%, -0.69, i
Nc1c(C(O)(C(F)(F)F)C(F)(F)F)ccc2ccccc12
    -3.0%, -0.31, i
Cc1[nH]nc2c1C(c1ccc(F)cc1)C(C#N)=C(N)O2 (stereo unspecified)
    -6.3%, -0.14, i
COc1ccc(S(=O)(=O)N(C)c2ccc(C(=O)NCC3CCCO3)cc2)cc1 (stereo unspecified)
    -3.1%, 0.07, i
O=C(Nc1ccc2c(c1)OCO2)Nc1cnccn1
    7.8%, 0.65, i
CCCCC(=O)Nc1ncc(Br)s1
    7.2%, -0.38, i
Cc1ccccc1C(=O)NC1CCN(CC(=O)Nc2c(C)cccc2C)CC1
    0.7%, x, i
Cc1ccc2oc(C(=O)Nc3c(C)n(C)n(-c4ccccc4)c3=O)c(C)c2c1
    3.0%, -0.43, i
Cc1ccc(OCc2n[nH]c(=S)n2C2CCCCC2)cc1
    5.2%, x, i
[O-]/[N+](=C/c1ccc(F)cc1)c1ccccc1
    1.0%, 0.04, i
Cc1c(N=Cc2c(O)n(C3CCCCC3)c(=O)[nH]c2=O)c(=O)n(-c2ccccc2)n1C
    -4.5%, 0.05, i
CCOc1ccc(NC(=O)CCS(=O)(=O)c2cccc3nsnc23)cc1
    -9.5%, -0.55, i
O=C(O)COc1ccc(Br)cc1/C=N/O
    3.9%, 1.1, i
O=C(CC(Cc1ccccc1)c1ccco1)NC1CCCCC1 (stereo unspecified)
    4.4%, x, i
COc1cc(C2C(C(C)=O)=C(O)C(=O)N2CCc2ccc(OC)c(OC)c2)ccc1O (stereo unspecified)
    -4.2%, -0.57, i
COc1ccc(N2CCCCn3c2nc2c3c(=O)[nH]c(=O)n2C)cc1
    -3.5%, 1.1, i
C#CC1(O)CC(C)NCC1(C)CCC#N (stereo unspecified)
    1.2%, 1.1, i
CCc1nc2ccccc2n1CCC(=O)O
    2.3%, x, i
O=C(NC1(C(F)(F)F)NC(=O)N(C2CCCCC2)C1=O)c1cccs1 (stereo unspecified)
    0.8%, 0.04, i
O=C(Cc1cccs1)Nc1ccc(C(=O)O)cc1
    4.3%, 0.83, i
Clc1ccccc1Cn1nnc(-c2cccs2)n1
    7.9%, -0.42, i
CCc1nnc(NC(=O)CSc2nnc(C)n2Cc2ccccc2)s1
    5.0%, x, i
CSC1=NCCN1C(=O)c1ccc(S(=O)(=O)N2CCOCC2)cc1
    4.1%, 0.64, i
COC(=O)CC1SC(=O)NC1=O (stereo unspecified)
    -1.8%, -0.22, i
CCc1cc2cc(C)cc(C)c2nc1SCC(=O)N1CCCC1
    2.4%, x, i
COc1ccc(S(=O)(=O)N2CCOCC2)c(C)c1C
    3.3%, x, i
Cc1ccccc1NC(=S)NCc1cccs1
    -2.3%, x, i
O=C(Cc1nn[nH]n1)NCCC1=CCCCC1
    -3.1%, -0.43, i
CC(c1ccco1)N(C(=O)COc1ccc(Cl)cc1)c1ccccn1 (stereo unspecified)
    0.3%, -0.15, i
O=C(NC1CC2CCC(C1)N2Cc1ccco1)c1ccccc1 (stereo unspecified)
    -1.6%, x, i
COc1ccc(C(=O)/C=C/c2cn(CN3CCN(C)CC3)c3ccccc23)cc1
    -13%, x, i
Cc1ccc(NC2=NC(c3ccc(O)cc3)n3c(nc(C)cc3=O)N2)cc1 (stereo unspecified)
    0.8%, -0.65, i
CC(C)OCCCn1c(=NC(=O)c2ccncc2)c(C#N)cc2c(=O)n3ccccc3nc21
    -2.6%, 3.4, i
O=C(Cn1nnc2ccccc21)C1CC1
    -4.6%, -0.86, i
O=C(Cc1ccccc1)Nn1cnc2ccccc21
    1.7%, -0.51, i
Cc1cc(C)nc(-n2nc(C)cc2NC(=O)CNC2CCCCC2)n1
    -0.3%, x, i
CC(C)NS(=O)(=O)c1ccc(OCC(=O)N2CCCC2)cc1
    -6.5%, x, i
CC(NC(=O)Nc1ccc(F)cc1F)c1ccncc1 (stereo unspecified)
    -2.5%, 1.6, i
Cn1c(C(=O)NCCCN2CCN(c3cccc(Cl)c3)CC2)cc2c(=O)n(C)c3ccccc3c21
    -6.6%, -0.09, i
CCc1ccc(C2C(C#N)=C(N)SC(N)=C2C#N)s1
    -66%, -1.1, i
Cc1cccc(NC(=O)CS(=O)(=O)c2cn(C)c3ccccc23)c1
    4.9%, -1.2, i
CS(=O)(=O)N(CC(=O)N1CCN(Cc2ccccc2)CC1)C1CCCCC1
    -2.1%, -0.05, i
CC(C)[C@H](NC(=O)OCc1ccccc1)C(=O)OCC(=O)NC1CCCCC1
    1.6%, x, i
Cc1cc(OC(C)C)nc(NCc2ccccc2)n1
    0.6%, x, i
Cn1ncc(C#N)c1/N=C/N1CCCC1
    -2.3%, x, i
COc1ccccc1CN(CC(=O)NCC1CCCO1)C(=O)CNS(=O)(=O)c1ccc(C)cc1 (stereo unspecified)
    -4.6%, 0.55, i
COCc1[nH]nc2c1C(c1sccc1C)C(C#N)=C(N)O2 (stereo unspecified)
    1.2%, -0.14, i
Cc1cccc(CCNS(=O)(=O)c2ccc(S(=O)(=O)NC3CCCC3)cc2)c1
    6.5%, x, i
Cn1ncc(Cl)c1C(=O)Nc1cc(C(F)(F)F)ccc1F
    6.0%, x, i
CCCCOc1ccc(C(=O)NC)cc1
    -1.0%, -2.3, i
Cc1nc2nc(CSc3nnc(C)s3)cc(=O)n2[nH]1
    -3.1%, -1.4, i
CCc1ccccc1N1C(=O)C2CC=CCC2C1=O (stereo unspecified)
    -1.1%, 0.06, i
Cn1cccc1Cc1nnc(SCC(=O)NC2CCCC2)n1CCc1ccccc1
    7.6%, 1.2, i

# Going on with the list.
# Every second line gives: Hsc70 ATP site, WNV protease inh, MT1-MMP reporter
CCCn1nc(NC(=O)CC(C)C)c2cc3ccccc3nc21
    -4.4%, -0.58, i
COc1ccc(NC(=O)C2CC(c3cc(OC)c(OC)c(OC)c3)=NO2)cc1OC (stereo unspecified)
    -3.5%, -0.74, i
CCCCC(c1nnnn1CCOC)N1CCN(c2cccc(OC)c2)CC1 (stereo unspecified)
    3.8%, 0.39, i
CC1CCN(CC(O)COCCC23CC4CC(CC(C4)C2)C3)CC1 (stereo unspecified)
    0.8%, x, i
O=C(O)C1CCCCC1C(=O)Nc1ccccn1 (stereo unspecified)
    0.4%, -0.82, i
O=C(O)c1cc(O)ccc1-c1ccc(O)cc1
    2.1%, 0.77, i
CCOC(=O)c1[nH]c2ccc(OC)cc2c1NC(=O)CN1CCc2ccccc2C1
    3.6%, x, i
CCC(=O)NCCc1c[nH]c2ccccc12
    -3.4%, x, i

# Only part of the results is shown, so the mix of outcomes need not match the whole.
